NOMO-1 viab = NOMO-1 AML cell viability reduction, primary screen, STK33 inhibitor project, CellTiter-Glo luminescence; NOMO-1 AML viability, 72 h; inhibition, % (concentration not given with the values); 7.5% of 37,000 active; AID 2330, 2010;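 active means most replicates above 80%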;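 further: wells of about 30 µL received 25 nL stock; 0% = median of vehicle wells and 100% = reference inhibitor level; the first replicate is given; inactives centre near 10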
Starred values were filed as active, the others as inactive. Not all compounds are listed (hit frequency here may not be typical).

nr	molecule	NOMO-1 viab
1	C[C@@H]1CN([C@H](C)CO)C(=O)Cc2cc(NS(=O)(=O)c3cn(C)cn3)ccc2O[C@@H]1CN(C)C(=O)Nc1ccc(C(F)(F)F)cc1	17
2	COc1ccc(S(=O)(=O)Nc2ccc3c(c2)CC(=O)N([C@@H](C)CO)C[C@H](C)[C@@H](CN(C)S(=O)(=O)c2ccccc2)O3)cc1	-9
3	OC(COCC1COc2ccccc2O1)CN1CCOCC1 (configuration not stated)	10
4	COc1ccc([N+](=O)[O-])cc1NC(=O)CCN1CCN(c2cccc(C(F)(F)F)c2)CC1	7
5	O=C(NC(NCc1ccccn1)(C(F)(F)F)C(F)(F)F)c1cccnc1	8
6	COC(=O)c1ccccc1NC(=O)Cn1c(=O)n(C)c(=O)c2ccccc21	-1
7	C=CCNC(=S)N1N=C2c3ccccc3CCC2C1c1ccccc1Cl (configuration not stated)	109*
8	COc1ccc(S(=O)(=O)N(C)C[C@@H]2Oc3ccc(NC(=O)CCCCCC(=O)Nc4ccccc4N)cc3C(=O)N([C@@H](C)CO)C[C@H]2C)cc1	13
9	C[C@@H]1CN([C@H](C)CO)C(=O)c2cc(NC(=O)Nc3ccccc3)ccc2O[C@H]1CN(C)C(=O)Nc1ccc2c(c1)OCO2	27
10	Cc1ccc(S(=O)(=O)Nc2cccc3c2O[C@@H](CN(C)C(=O)Nc2ccccc2)[C@@H](C)CN([C@H](C)CO)C3=O)cc1	25
11	C[C@@H]1CN([C@H](C)CO)C(=O)Cc2cc(NC(=O)Nc3ccc(C(F)(F)F)cc3)ccc2O[C@H]1CN(C)Cc1ccc(C(F)(F)F)cc1	94*
12	C[C@H]1CN([C@@H](C)CO)C(=O)c2cccc(NC(=O)Nc3ccc(C(F)(F)F)cc3)c2O[C@@H]1CN(C)C(=O)Nc1ccccc1	79
13	CC(NCC(O)Cn1c2ccccc2c2ccccc21)C(=O)O (configuration not stated)	-3
14	C[C@H]1CN([C@@H](C)CO)C(=O)Cc2cc(N(C)C)ccc2O[C@H]1CN(C)C(=O)Nc1ccccc1	28
15	O=C(CSc1nc2ccccc2c(=O)n1Cc1ccco1)c1ccccc1	41
16	C[C@H]1CN([C@@H](C)CO)C(=O)c2cc(NS(=O)(=O)c3cccs3)ccc2O[C@H]1CN(C)CC1CC1	8
17	Nc1nnc(SCC(=O)Nc2ccc(F)c(F)c2F)s1	25
18	C[C@H](CO)N1C[C@H](C)[C@H](CN(C)S(=O)(=O)c2cn(C)cn2)Oc2ccc(NC(=O)Nc3ccc(F)cc3)cc2C1=O	-12
19	C[C@H]1CN([C@@H](C)CO)C(=O)c2cc(NC(=O)Cc3ccccc3)ccc2O[C@H]1CN(C)C(=O)Nc1ccccc1	17
20	O=[N+]([O-])c1ccccc1/C=C/CN1CCC(O)CC1	19
21	CC1(C)CC(=O)C2=C(C1)N(c1ccccc1)C(=O)C2(NC(=O)c1cccnc1)C(F)(F)F (configuration not stated)	-1
22	C[C@@H]1CN([C@H](C)CO)C(=O)Cc2cc(NC(=O)C3CC3)ccc2O[C@@H]1CN(C)Cc1ccc(Oc2ccccc2)cc1	31
23	C[C@H]1CN([C@@H](C)CO)C(=O)c2cccc(NC(=O)NC3CCCCC3)c2O[C@@H]1CN(C)Cc1ccccc1	58
24	Cc1ccc(-c2nn(CCC(=O)Nc3cccc(Cl)c3)c(=O)c3ccccc23)cc1	-5
25	COC(=O)c1cc(-c2ccccc2)sc1NC(=S)Nc1ccn(C)n1	18
26	CCCc1ccc(O)c(N)c1	124*
27	Cn1c(SCC(=O)c2ccc(F)cc2)nnc1-c1ccco1	6
28	C[C@@H]1CCCCO[C@H](CN(C)C(=O)CCC(F)(F)F)[C@@H](C)CN([C@H](C)CO)C(=O)c2cc(NC(=O)Cc3ccccc3)ccc2O1	15
29	CN(C)/C=N/n1cnc2sc3c(c2c1=O)CCCC3	4
30	C[C@@H]1CN([C@@H](C)CO)C(=O)Cc2cc(NC(=O)Nc3ccc4c(c3)OCO4)ccc2O[C@@H]1CN(C)CC1CC1	17
31	COc1ccc(Cl)cc1Nc1nc(N)nc(-c2oc3ccccc3c2C)n1	12
32	CC(C)NC(=O)Nc1ccc2c(c1)C(=O)N([C@@H](C)CO)C[C@@H](C)[C@@H](CN(C)C(=O)Nc1ccccc1)O2	-12
33	C[C@H](CO)N1C[C@H](C)[C@@H](CN(C)C(=O)Nc2cccc3ccccc23)Oc2ccc(NC(=O)CCN3CCOCC3)cc2C1=O	-2
34	O=C1C(=O)N(CCn2c3ccccc3c3nc4ccccc4nc32)c2ccccc21	119*
35	C[C@@H]1CN([C@@H](C)CO)C(=O)Cc2cc(NC(=O)Cc3cn(C)c4ccccc34)ccc2O[C@@H]1CN(C)C(=O)Nc1ccc2c(c1)OCO2	5
36	C(=N\C(/N=C/c1ccccc1)c1ccccc1)/c1ccccc1	13
37	C[C@@H]1CN([C@@H](C)CO)C(=O)c2cc(NC(=O)CCCCCC(=O)Nc3ccccc3N)ccc2O[C@H]1CN(C)S(=O)(=O)c1ccc(Cl)cc1	28
38	Cc1noc(C)c1NC(=O)N(C)C[C@H]1Oc2c(NS(C)(=O)=O)cccc2C(=O)N([C@H](C)CO)C[C@@H]1C	-19
39	C[C@H]1CN([C@@H](C)CO)C(=O)Cc2cc(NC(=O)Nc3ccc(C(F)(F)F)cc3)ccc2O[C@H]1CN(C)Cc1ccc(C(F)(F)F)cc1	136*
40	Cc1noc(C)c1S(=O)(=O)N(C)C[C@H]1Oc2c(NS(C)(=O)=O)cccc2C(=O)N([C@@H](C)CO)C[C@H]1C	7
41	Cc1nc(CSc2ncnc3sc(C)c(C)c23)cs1	-23
42	CC(C)NC(=O)N(C)C[C@H]1Oc2ccc(NC(=O)c3ccncc3)cc2C(=O)N([C@H](C)CO)C[C@@H]1C	-7
43	Cc1ccc(C2C(C(=O)c3sc(-c4ccccc4)nc3C)C(=O)C(=O)N2CCN(C)C)o1 (configuration not stated)	-8
44	Cc1cc(C)c(Cn2c(CCCO)nc3ccccc32)c(C)c1	60
45	COc1ccc(NC(=O)Nc2ccc3c(c2)CC(=O)N([C@@H](C)CO)C[C@@H](C)[C@@H](CN(C)CC2CCCCC2)O3)cc1	57
46	C[C@@H]1CCCCO[C@H](CN(C)S(=O)(=O)c2cccs2)[C@@H](C)CN([C@H](C)CO)C(=O)c2cc(NC(=O)Nc3ccc(F)cc3)ccc2O1	61
47	CNC[C@H]1Oc2ccc(NC(=O)Nc3ccc(F)cc3)cc2CC(=O)N([C@@H](C)CO)C[C@H]1C	29
48	C[C@@H]1CCCCO[C@@H](CN(C)C(=O)Cc2ccccc2)[C@@H](C)CN([C@H](C)CO)C(=O)c2cc(NC(=O)C3CCCCC3)ccc2O1	23
49	O=C(Oc1ccc(Br)cc1)c1ccco1	-5
50	O=C1c2ccccc2C(=O)N1CCC12CC3CC(CC(C3)C1)C2	24
51	CCOc1ccc(Cl)cc1CNCc1ccccn1	15
52	COc1ccc(CN(C)C[C@@H]2OCCCC[C@@H](C)Oc3ccc(NC(=O)c4ccncc4)cc3C(=O)N([C@H](C)CO)C[C@@H]2C)cc1	3
53	CCc1c(O)nc2ccccn2c1=O	4
54	C[C@@H]1CN([C@H](C)CO)C(=O)Cc2cc(NS(=O)(=O)c3ccccc3)ccc2O[C@@H]1CN(C)C(=O)NC1CCCCC1	-3
55	Cc1sc(NC(=O)c2cc(-c3ccccn3)nc3ccc(Cl)cc23)c(C(N)=O)c1C	45
56	CC(C)NC(=O)N(C)C[C@H]1Oc2ccc(NC(=O)Nc3ccc(F)cc3)cc2C(=O)N([C@@H](C)CO)C[C@H]1C	-17
57	c1ccc2oc(CCCc3nc4ccccc4o3)nc2c1	-13
58	COc1ccc(C(=O)CC(C#Cc2ccccc2)CC(=O)c2ccc(OC)cc2)cc1	38
59	Cc1ccc(NC(=O)CCn2nc(-c3ccccc3)c3ccccc3c2=O)cc1	3
60	C[C@H]1CN([C@@H](C)CO)C(=O)Cc2cc(NC(=O)Cc3ccccc3)ccc2O[C@@H]1CN(C)C(=O)Nc1ccc(C(F)(F)F)cc1	7

Next structures follow:
nr	molecule	NOMO-1 viab
61	CC(C)NC(=O)N(C)C[C@@H]1Oc2ccc(NC(=O)Nc3ccc4c(c3)OCO4)cc2C(=O)N([C@H](C)CO)C[C@@H]1C	-18
62	C[C@H](CO)N1C[C@H](C)[C@H](CN(C)C(=O)Nc2ccc(C(F)(F)F)cc2)Oc2c(NC(=O)c3nc4ccccc4s3)cccc2C1=O	104*
63	N#Cc1c(-c2cccs2)c2c([nH]c1=S)CCCC2	36
64	Cc1cccc(NC(=O)CC(C(=O)O)N2CCOCC2)c1 (configuration not stated)	-4
65	C[C@@H]1CN([C@@H](C)CO)C(=O)c2cccc(NC(=O)Nc3ccc(F)cc3)c2O[C@H]1CN(C)Cc1ccncc1	22
66	C[C@H](CO)N1C[C@H](C)[C@@H](CN(C)S(C)(=O)=O)Oc2c(NC(=O)Nc3cccc4ccccc34)cccc2C1=O	16
67	C[C@H](CO)N1C[C@H](C)[C@@H](CN(C)Cc2ccc(Oc3ccccc3)cc2)Oc2c(NC(=O)Nc3ccc(F)cc3)cccc2C1=O	99*
68	CNC[C@@H]1Oc2ccc(NS(=O)(=O)c3cccs3)cc2CC(=O)N([C@H](C)CO)C[C@H]1C	-2
69	CCc1cccc(OCC(=O)Nc2cc([N+](=O)[O-])ccc2O)c1	16
70	CCn1c(SCC(=O)Nc2ccccc2C)nc2ccc(I)cc2c1=O	47
71	C[C@H](CO)N1C[C@H](C)[C@H](CN(C)CC2CCCCC2)Oc2ccc(NS(=O)(=O)c3cn(C)cn3)cc2CC1=O	-3
72	Cc1ccc(S(=O)(=O)Nc2cccc3c2O[C@@H](CN(C)S(=O)(=O)c2ccc(Cl)cc2)[C@@H](C)CN([C@H](C)CO)C3=O)cc1	35
73	C[C@H](CO)N1C[C@H](C)[C@@H](CN(C)S(=O)(=O)c2ccc(F)cc2)Oc2ccc(NC(=O)CCC(F)(F)F)cc2C1=O	-6
74	COc1ccc(NC(=O)C(C)NS(=O)(=O)c2ccccc2)cc1Cl (configuration not stated)	-2
75	Cc1noc(C)c1S(=O)(=O)Nc1ccc2c(c1)C(=O)N([C@@H](C)CO)C[C@@H](C)[C@@H](CN(C)Cc1ccc(-c3ccccc3)cc1)O2	64
76	COc1ccc(NC(=O)N(C)C[C@@H]2Oc3c(NS(=O)(=O)c4ccc(F)cc4)cccc3C(=O)N([C@H](C)CO)C[C@@H]2C)cc1	35
77	CC(C)c1c(O)ccc2c1CCC1C(C)(C)CCC[C@]21C (some centres not stated)	109*
78	Cc1ccc(S(=O)(=O)Nc2ccc3c(c2)CC(=O)N([C@H](C)CO)C[C@@H](C)[C@@H](CN(C)CC2CCCCC2)O3)cc1	97*
79	C[C@@H]1CN([C@@H](C)CO)C(=O)c2cccc(NC(=O)c3ccncc3)c2O[C@@H]1CN(C)Cc1ccc(Oc2ccccc2)cc1	9
80	C[C@@H]1CCCCO[C@H](CN(C)Cc2ccccc2)[C@@H](C)CN([C@H](C)CO)C(=O)c2cc(NC(=O)C3CCCCC3)ccc2O1	15
81	CCOC(=O)c1ccccc1NC(=O)C(C)Oc1cc(C)c(Cl)c(C)c1 (configuration not stated)	35
82	C[C@H]1CN([C@@H](C)CO)C(=O)Cc2cc(NS(=O)(=O)c3cn(C)cn3)ccc2O[C@@H]1CN(C)C(=O)Nc1ccccc1	9
83	C[C@H]1CN([C@@H](C)CO)C(=O)c2cccc(NC(=O)c3ccncc3)c2O[C@H]1CN(C)Cc1ccc2c(c1)OCO2	3
84	Cc1ccc(S(=O)(=O)N(C)C[C@@H]2Oc3ccc(NC(=O)Cc4ccccc4)cc3CC(=O)N([C@H](C)CO)C[C@@H]2C)cc1	36
85	Cc1ccc(-c2noc(CSc3nnc(C)n3-c3cccc(C)c3)n2)cc1	31
86	COc1ccc(S(=O)(=O)Nc2ccc3c(c2)C(=O)N([C@H](C)CO)C[C@@H](C)[C@H](CN(C)S(=O)(=O)c2ccc(C)cc2)O3)cc1	38
87	C[C@H]1CN([C@@H](C)CO)C(=O)c2cccc(NC(=O)C3CC3)c2O[C@H]1CN(C)C(=O)Nc1ccc(C(F)(F)F)cc1	37
88	COc1ccc(S(=O)(=O)N2CCOCC2)cc1C(=O)NCCN1CCOCC1	9
89	Cc1ccc(-c2csc3nnc(SCC(=O)Nc4ccc(Cl)cc4)n23)cc1	17

Structural class: the entries above with an aryl thioether with sulfur outside any ring.
nr	molecule	NOMO-1 viab
15	O=C(CSc1nc2ccccc2c(=O)n1Cc1ccco1)c1ccccc1	41
17	Nc1nnc(SCC(=O)Nc2ccc(F)c(F)c2F)s1	25
27	Cn1c(SCC(=O)c2ccc(F)cc2)nnc1-c1ccco1	6
41	Cc1nc(CSc2ncnc3sc(C)c(C)c23)cs1	-23
70	CCn1c(SCC(=O)Nc2ccccc2C)nc2ccc(I)cc2c1=O	47
85	Cc1ccc(-c2noc(CSc3nnc(C)n3-c3cccc(C)c3)n2)cc1	31
89	Cc1ccc(-c2csc3nnc(SCC(=O)Nc4ccc(Cl)cc4)n23)cc1	17

Compounds 70–72 from above:
nr	molecule	NOMO-1 viab
70	CCn1c(SCC(=O)Nc2ccccc2C)nc2ccc(I)cc2c1=O	47
71	C[C@H](CO)N1C[C@H](C)[C@H](CN(C)CC2CCCCC2)Oc2ccc(NS(=O)(=O)c3cn(C)cn3)cc2CC1=O	-3
72	Cc1ccc(S(=O)(=O)Nc2cccc3c2O[C@@H](CN(C)S(=O)(=O)c2ccc(Cl)cc2)[C@@H](C)CN([C@H](C)CO)C3=O)cc1	35

Copied from the list.
#68 @ NOMO-1 viab = -2
#83 @ NOMO-1 viab = 3
#62 @ NOMO-1 viab = 104*

Source: PubChem BioAssay
